PINK1 expr mod: modulators of PINK1 expression; 410,000 tested, 0.2% active; AID 624263; PINK1 immunofluorescence, high-content cytometry, 24 h; Potency, µM (titrated, usually from 76.6 µM), for inactives: at the highest dose activation (PINK1 increase), usual class: activators; active = well fitted activation curve with a large enough effect; inconclusive = small, poorly fitted or top-dose-only effect; inactive = flat fitted curve, though single readings scatter; cell line not stated here;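 further: % of control where 0% means no effect; nearly all actives have a fitted effect of over 65% in size; a mitochondrial uncoupler was the plate control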
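Stable cell line treated 24 h with compounds at 5 concentrations (CCCP controls), then fixed and immunostained for PINK1 plus nuclear and cell stains; PINK1 immunofluorescence quantified by laser-scanning microplate cytometry.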
The depositor's hits bear a star; ? = inconclusive; & = joins results of further samples. Potency means the concentration at half of the fitted maximal effect. This is a subset; rates above refer to the full screens.

SMILES	PINK1 expr mod
COC(=O)N1CCC[C@@]2(CCN(c3ccccc3)C2)C1	1.4%
COC(=O)N1CCC2(CC1)CN(c1cccc(-c3ccccc3)c1)C2	-0.3%
COc1cccc(-c2cc(NCc3cnc(C)cn3)ncn2)c1	-0.3%
Cn1cccc1C(=O)N1CCC[C@@]2(CCN(C(=O)Nc3cccc(C#N)c3)C2)C1	-0.7%
O=C(N[C@@H]1c2ccccc2C2(CCN(C(=O)c3cc4ccccc4oc3=O)CC2)[C@H]1O)c1cccnc1	1.2%
COc1ccc2c(c1)CCc1cnc(-n3ncc(C(=O)NCc4cc(C)no4)c3C3CC3)nc1-2	0.3%
COc1ccccc1-c1nc2cc(C(=O)NC[C@H]3CCc4ccccc4O3)cc(NC(C)=O)c2n1C	0.6%
OCCNc1nc(Nc2ccc(Cl)cc2)nc(N2CCCC2)n1	2.3%
COCCn1c(=O)c(-c2cccs2)nc2cnc(Nc3ccccc3)nc21	?
COc1ccccc1CCn1c(=O)c(-c2ccccc2)nc2cncnc21	0.4%
COc1ccccc1-c1ccnc(-n2ncc(C(=O)NC3CCCN(Cc4ccccc4)C3)c2C)n1 (stereo not given)	-0.1%
CN(C)c1nc(-c2cccnc2)nc2ccccc12	1.1%
CN(Cc1ccco1)c1ncnc2ccc(-c3ccc4c(c3)OCO4)cc12	2.2%&2.1%
C=C1CCC2C(CC2(C)C)C(=O)CCC1O (stereo not given)	-2.3%
O=C(NCC1Cc2cccc(-c3ncccn3)c2O1)C1CCOC1 (stereo not given)	0.0%
N#Cc1cccc(NC(=O)N2CC[C@@]3(CCCN(C(=O)c4ccncc4)C3)C2)c1	-1.0%
O=C(O)c1ccc(-c2nn3c(=O)cc(N4CCNCC4)nc3s2)cc1	0.7%
CS(=O)(=O)N1CCC[C@@]2(CCN(Cc3ccc(C#N)cc3)C2)C1	1.1%
FC(F)(F)c1ccccc1-c1nc(NCCN2CCOCC2)c2ccccc2n1	1.3%
COc1cccc(CN2CCOc3ccc(CN4C[C@@H](C)O[C@@H](C)C4)cc3C2)c1OC	0.9%
COCc1c(C(=O)NC2CCCC2)cnn1-c1nccc(-c2ccco2)n1	0.2%
Cn1nnnc1Sc1ncnc2scc(-c3ccccc3Br)c12	-0.6%
CN(C)Cc1ccccc1-c1nc(N(C)Cc2ccco2)c2ccccc2n1	0.4%
Cn1cccc1C(=O)N1CCC[C@@]2(CCN(c3ncccn3)C2)C1	-1.1%
COc1cccc(Nc2nn3c(=O)c4ccccc4nc3s2)c1	4.8%

Gathered by group, those above containing a furan ring, fused or not.
SMILES	PINK1 expr mod
CN(Cc1ccco1)c1ncnc2ccc(-c3ccc4c(c3)OCO4)cc12	2.2%&2.1%
COCc1c(C(=O)NC2CCCC2)cnn1-c1nccc(-c2ccco2)n1	0.2%
CN(C)Cc1ccccc1-c1nc(N(C)Cc2ccco2)c2ccccc2n1	0.4%

Later entries.
SMILES	PINK1 expr mod
COc1ccc(O)c(CN2CCC3(CCC(CNC(=O)C4CCCO4)O3)CC2)c1 (stereo not given)	-0.6%
O=C(Nc1cccc(F)c1)N1CCCC2(CCN(C(=O)c3ccco3)CC2)C1	-0.2%
CC(C)CCCC(C)C1CCC2C3CC=C4CC(=O)CC[C@@]4(C)C3CC[C@@]12C (stereo not given in full)	-0.3%
COc1cc(=O)n2c(c1C(=O)N(C)Cc1nonc1C)CCN(C(=O)c1cccc(C)c1C)CC2	-1.2%
CN1CCN(c2ncc3nc(-c4ccc(Cl)cc4)c(=O)n(Cc4ccc(F)cc4)c3n2)CC1	2.7%
Cn1cnnc1Sc1ccc(CN2CCOc3ccc(C4=Cc5ccccc5C4)cc3C2)o1	1.4%
COc1ccc(Oc2ncc3nc(C)c(=O)n(Cc4cccs4)c3n2)cc1	0.2%
COCC(=O)N1CCC2(CCN(Cc3nccs3)CC2)CC1	1.2%
COC(=O)N1CCC2(CC1)CN(C(=O)Nc1ccccc1)C2	0.4%
CC(=O)N1CCC2(CC1)CCN(c1ncccn1)CC2	1.1%
CC(=O)Nc1ccc(C(=O)N2CCCC(c3nc(SCc4ccccn4)ncc3C)C2)cc1 (stereo not given)	0.9%
COCCn1c(=O)c(CCc2ccccc2)nc2cnc(OC)nc21	0.2%
CCC1CN(CC(=O)N(C)Cc2nc3ccccc3[nH]2)Cc2cc(OC)ccc2O1 (stereo not given)	0.2%
Clc1cccc(-c2nc(-c3ccc(-c4nn[nH]n4)cc3)no2)c1	0.2%
O=C(c1ccco1)N1CCC2(CCCN(c3ccccn3)C2)CC1	-0.1%
COc1cccc(Cn2c(=O)c(-c3ccccc3)nc3cnc(N4CCN(C)CC4)nc32)c1	0.7%
CCNc1ncc2nc(-c3ccc(Cl)cc3)c(=O)n(C[C@H]3CCCO3)c2n1	1.0%
COc1ccccc1CNc1nc(-c2ccccc2OC)nc2ccccc12	?
CC(O)(COc1ccccc1)c1ccc2c(c1)CN(Cc1cccc3cccnc13)CCO2 (stereo not given)	0.3%
O=C(c1ccccc1C(F)(F)F)N1CCOc2c(cc(-c3nc4ccccc4s3)cc2OC2CCOC2)C1 (stereo not given)	-0.6%
O=C(c1csnn1)N1CCC2(CCCN(c3ncccn3)C2)CC1	-0.8%
COC(=O)c1c(OCc2ccccc2)cc(=O)n2c1CCN(Cc1cccc(C)n1)CC2	1.7%
CN1CCN(c2ncc3nc(-c4cccc(C#N)c4)c(=O)n(C[C@H]4CCCO4)c3n2)CC1	0.0%
CC(C)N(CCO)Cc1nc(N2CCOCC2)c2cc(Cl)ccc2n1	0.7%
Cn1c(=O)cnc2cnc(Nc3ccccc3)nc21	-1.2%

(further entries)
SMILES	PINK1 expr mod
COC(c1ccc2c(c1)CN(C(=O)Cn1nc(C)c3ccccc3c1=O)CCO2)C1CCCCC1 (stereo not given)	1.3%
Cn1cccc1C(=O)N1CCC2(CC1)CCN(c1ccccc1)CC2	-0.5%
CC(CN1CCc2nnc(CNC(=O)c3cccc(F)c3)n2CC1)c1ccccc1 (stereo not given)	-0.3%
COc1cc(CN2CCC3(CCC(CNC(=O)c4ccccc4)O3)CC2)cc(OC)c1 (stereo not given)	0.4%
Cc1cc(C(=O)Nc2cccc(-c3nc(CNC(=O)c4ccc[n+]([O-])c4)c(C)o3)c2)c(C)o1	0.4%
O=C(NCCc1ccccn1)C1CC12CCN(C(=O)c1ccc(F)cc1Cl)CC2 (stereo not given)	-0.6%
COc1ccc(CN2CCC3(CCC(CNC(=O)c4ccnn4C)O3)CC2)c(C)c1C (stereo not given)	-0.4%
CC(C)(C)c1ccc(C(=O)N2CCC3(CC2)CC3C(=O)NCCc2ccccn2)cc1 (stereo not given)	0.3%
CCNc1ncc2nc(-c3ccccc3)c(=O)n(Cc3ccc(F)cc3)c2n1	4.9%
COc1cccc(-c2nc(NCc3cnc(C)cn3)c3ccccc3n2)c1	2.2%
CN(C)C(=O)c1ccc(-c2nc(NCc3cccs3)c3ccccc3n2)cc1	1.2%
OC[C@H]1O[C@@H](n2cnc3cncnc32)[C@H](O)[C@@H]1O	-1.9%
COc1cc(CN2CCC3(CC2)CC3C(=O)Nc2ccc3sc(C)nc3c2)ccc1F (stereo not given)	0.0%
COc1ccc(-c2ccnc(-n3ncc(C(=O)NCc4ccon4)c3C3CC3)n2)cc1F	7.8%
COc1cccc(CC(=O)NCC2Cc3cc(Cl)cc(-c4ncccn4)c3O2)c1 (stereo not given)	0.4%
Cn1cc(-c2nc3cnc(N4CCNCC4)nc3n(CCC#N)c2=O)c2ccccc21	3.8%
CN(C)C(=O)c1ccc(-c2cncnc2NCc2ccccc2)cc1	-0.6%
COC(=O)N1CCC2(CCCN(c3ccccn3)C2)CC1	1.0%
CCS(=O)(=O)NCc1c(C)ncc2c1CCN(C(=O)c1csc(-c3cccs3)n1)C2	1.0%
Cc1nc2cnc(Oc3ccccc3)nc2n(-c2ccccc2)c1=O	0.2%
CC1(C)c2[nH]c3ccccc3c2C[C@H]2C(=O)N(Cc3ccccc3)C(=O)N21	3.2%
CCNc1ncc2ncc(=O)n(C)c2n1	0.2%
COCC(=O)N1CCC[C@@]2(CCN(c3ccccc3)C2)C1	0.2%
CC1=C(/C=C/C(C)=C/C=C/C(C)=C/C=C/C=C(C)/C=C/C=C(C)/C=C/C2=C(C)C(=O)C(O)CC2(C)C)C(C)(C)CC(O)C1=O (stereo not given)	2.4%
COc1cccc2ccc(CN3CCC4(CC3)c3ccccc3[C@@H](NC(=O)c3ccccc3)[C@@H]4O)nc12	-0.5%

Individual results from the list:
Value for COCc1c(C(=O)NC2CCCC2)cnn1-c1nccc(-c2ccco2)n1 under PINK1 expr mod: 0.2%
Value for COc1cccc(CC(=O)NCC2Cc3cc(Cl)cc(-c4ncccn4)c3O2)c1 (stereo not given) under PINK1 expr mod: 0.4%
Value for Cn1cccc1C(=O)N1CCC[C@@]2(CCN(c3ncccn3)C2)C1 under PINK1 expr mod: -1.1%
Value for COc1cc(CN2CCC3(CCC(CNC(=O)c4ccccc4)O3)CC2)cc(OC)c1 (stereo not given) under PINK1 expr mod: 0.4%
Value for OCCNc1nc(Nc2ccc(Cl)cc2)nc(N2CCCC2)n1 under PINK1 expr mod: 2.3%
Value for CCS(=O)(=O)NCc1c(C)ncc2c1CCN(C(=O)c1csc(-c3cccs3)n1)C2 under PINK1 expr mod: 1.0%

Following part:
SMILES	PINK1 expr mod
O=C(O)Cc1cc(I)c(Oc2cc(I)c(O)c(I)c2)c(I)c1	3.4%
O=C(Nc1ccccc1)N1CCCC2(CCNCC2)C1	0.3%
O=C(c1cnn(-c2nccc(-c3ccccc3F)n2)c1C1CC1)N1CCN(CCO)CC1	0.0%
Cc1nc(SCc2nc3ccc(Cl)cc3[nH]2)c2oc3ccccc3c2n1	4.7%
OCCCNCc1cc2cc3c(cc2nc1N1CCN(c2cccc(Cl)c2)CC1)OCO3	-0.7%
O=C(c1cnccn1)N1CCC[C@@]2(CCN(Cc3ccccc3)C2)C1	-0.3%
O=c1c(-c2ccc(Cl)cc2)nc2cnc(Oc3ccccc3)nc2n1C1CC1	2.6%
COc1ccccc1-c1ccnc(-n2ncc(C(=O)N3CCCCC3c3cccnc3)c2C)n1 (stereo not given)	-1.1%
N#Cc1ccccc1-c1ccc2ncnc(NCCN3CCOCC3)c2c1	1.0%
CCn1nc(C)cc1C(=O)NCCN1Cc2ccccc2OC(c2ccccc2F)C1 (stereo not given)	1.9%
Cn1c(=O)c(-c2cc(F)cc(F)c2)nc2cnc(Nc3ccccc3)nc21	-0.1%
COC(=O)N1CCC2(CC1)CCN(c1ccccn1)CC2	-0.9%
O=C(NCc1nnc2n1CCN(Cc1cc(F)cc(F)c1)CC2)c1cccc(F)c1	4.2%
COc1ccccc1-c1nc(NCc2ccccc2)c2ccccc2n1	7.1%
Cc1ncc2c(c1CNC(=O)c1ccc3c(c1)OCO3)CCN(C(=O)c1scc3c1CCCC3)C2	-0.5%
O=C(OCC#CCSc1nnc(-c2cccc3ccccc23)o1)c1ccc(Cl)cc1	-0.5%
COc1cc(=O)n2c(c1C(=O)N(C)Cc1nonc1C)CCN(Cc1cc(C)c(C)cc1C)CC2	0.6%
COC(=O)c1c(OCc2ccc(F)cc2)cc(=O)n2c1CCN(Cc1ccc3cccnc3c1)CC2	0.4%
CS(=O)(=O)Nc1cccc(-c2nc(NC3CC3)c3ccccc3n2)c1	5.7%
Cc1ccccc1-c1cc(NCCN2CCOCC2)ncn1	-0.1%
Cn1cccc1C(=O)N1CCC[C@@]2(CCN(Cc3ccccc3)C2)C1	0.1%
CN(C)C(=O)Nc1ccc(Cl)c(Cl)c1	-0.8%
O=C(NCCc1nnc2n1CCN(Cc1ccc3c(c1)CCO3)CC2)c1ccco1	1.3%
CC(C)Oc1ccc2c(=O)cc(-c3ccccc3)oc2c1	1.3%
Clc1ccccc1-c1nccc(-n2ccnc2)n1	-0.7%

Continued; the last 3 above are carried over.
SMILES	PINK1 expr mod
O=C(NCCc1nnc2n1CCN(Cc1ccc3c(c1)CCO3)CC2)c1ccco1	1.3%
CC(C)Oc1ccc2c(=O)cc(-c3ccccc3)oc2c1	1.3%
Clc1ccccc1-c1nccc(-n2ccnc2)n1	-0.7%
COc1cc(-c2cc(C)c3cccc(OC)c3n2)cc2c1OCCN(C(=O)CCn1nc(C)cc1C)C2	0.2%
O=C(Nc1ccccc1)N1CCC2(CC1)CCN(C(=O)c1csnn1)CC2	-1.0%
CC(C)(CO)NC(=O)c1cnn(-c2nccc(-c3ccc4c(c3)OCO4)n2)c1C1CC1	0.4%
COc1ncc2nc(-c3ccccc3)c(=O)n(C[C@H]3CCCO3)c2n1	-1.4%
COc1ccc(Oc2ncc3nc(-c4cccs4)c(=O)n(Cc4cccs4)c3n2)cc1	1.9%
Cc1noc(C)c1-c1nccc(NCCN2CCOCC2)n1	-0.6%
O=c1cnc2cnc(N3CCOCC3)nc2n1CCc1ccccc1	0.3%
COC(=O)[C@@H]1CCCN1Cc1ccc2c(c1)CN(Cc1coc3ccccc3c1=O)CCO2	-0.9%
CC1CCC2C(C)(C)C3CC12CC[C@]3(C)O (stereo not given in full)	0.0%
COc1ccc(CNc2ncnc3ccc(-c4ccoc4)cc23)c(OC)c1	-0.2%
Cn1cc(-c2nc3cnc(Oc4cccc(Cl)c4)nc3n(C3CC3)c2=O)c2ccccc21	-0.7%
Cc1nc(NCc2ccc3nsnc3c2)sc1-c1ccn(C)n1	1.8%
Cc1nc(C)c(C(=O)NCc2nc(-c3cccc(NC(=O)c4ccccn4)c3)oc2C)s1	-1.0%
Cn1c(=O)c(-c2ccc(F)cc2)nc2cnc(N3CCOCC3)nc21	-0.6%
COc1ccc(-c2c(O)c3c(OC)c4c(cc3oc2=O)OC(C)(C)C=C4)cc1	-1.6%
FC(F)(F)c1ccccc1-c1nc(NCc2cccs2)c2ccccc2n1	-0.3%
Cc1[nH]c2c(C(=O)NCC3Cc4cccc(-c5cccnc5)c4O3)cccc2c1C (stereo not given)	1.2%
N#Cc1ccccc1-c1nc(NCCN2CCOCC2)c2ccccc2n1	1.3%
COc1ccccc1-c1nccc(NCc2ccccc2)n1	2.2%
CNS(=O)(=O)c1ccc2c(c1)C(=O)c1cc(S(=O)(=O)NC)ccc1CC2	2.6%
